# MgrA-DNA mod: S. aureus MgrA activity modulators, primary screen, biochemical, S. aureus Newman, fluorescence polarization; inhibition, %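 (about 10 µg/mL by stock and volumes)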; 0.13% of 84,000 active; MgrA-DNA binding;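 active = above 50% in either of two replicates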;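 also: 0% = protein plus DNA without compound and 100% = DNA alone without protein; higher means less MgrA bound to DNA so lower polarization; one replicate is shown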
# Sa helicase inh: inhibitors of S. aureus replicative helicase, primary screen, biochemical, fluorescence unwinding readout. 0.05% of 120,000 active. replicative DNA helicase (DnaC/DnaB), Staphylococcus aureus. purified S. aureus helicase, fluorescence unwinding assay; about half of the hits fall short of the stated cut. inhibition, %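 (tested at about 80 µM)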;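 active = both duplicates at 50% or more, or one of them with a favoured structure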;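 also: 0% = mean of negative control wells and 100% = mean of positive control wells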
# The depositor's hits bear a star; x = no result given; & = joins results of further samples. These rows are one share of the data; count on the stated rates, not on these rows.
MgrA-DNA mod	Sa helicase inh	SMILES
0.6	x	CCOC(=O)c1c(C)n(C)c2c1cc(OC(=O)c1cccc3ccccc13)c1ccccc12
x	-5.0	CN1C(=O)C2(NC(=O)c3ccccc3N2C)c2ccccc21 (stereo not drawn)
x	11.0	CCc1ccc2c(c1)C1C=CCC1C(c1ccc(C(=O)O)cc1)N2 (stereo not drawn)
69.0*	x	COc1ccc2c3c(cccc13)C(=O)CC2
-0.3	7.0	Nn1c(CSc2ccccn2)nc2ccccc2c1=O
-0.9	x	COc1ccc([N+](=O)[O-])c(OC)c1C(=O)Nc1ccc(F)c(Cl)c1
0.3	8.0	O=S1(=O)CCC(NC(=S)N2CCCCC2)C1 (stereo not drawn)
x	12.0	COc1cccc(OC)c1C(=O)N1CCCCC1

# Gathered by group: those above containing an aryl methoxy group
MgrA-DNA mod	Sa helicase inh	SMILES
69.0*	x	COc1ccc2c3c(cccc13)C(=O)CC2
-0.9	x	COc1ccc([N+](=O)[O-])c(OC)c1C(=O)Nc1ccc(F)c(Cl)c1
x	12.0	COc1cccc(OC)c1C(=O)N1CCCCC1

# (listing goes on)
MgrA-DNA mod	Sa helicase inh	SMILES
x	-2.0	Nc1ccc(Cl)cc1C(O)c1ccccc1 (stereo not drawn)
-1.9	x	O=S(=O)(NCc1cccs1)c1c(F)cccc1F
-2.1	-1.0	COc1ccc(S(=O)(=O)NC(CC(=O)N2CCCCC2)C(C)C)cc1 (stereo not drawn)
4.9	x	CCCSc1nnc(/N=C/NO)s1
x	7.0	O=C(CN1CCCCC1)Nc1ccccc1C(=O)NC1CC1
x	-7.0	NS(=O)(=O)c1cccc(-n2cnnn2)c1
x	8.0	Cc1cc(C)c2c(n1)SCC(=O)N2CC(=O)NC1CCN(Cc2ccccc2)CC1
-0.2	2.0	Cc1ccn2c(=O)c(-c3ccccc3)c(O)nc2c1
2.6	x	Cn1cnc([N+](=O)[O-])c1Sc1nnc(-c2ccc(C(C)(C)C)cc2)n1-c1ccc2c(c1)OCO2
x	-23.0	CS(=O)(=O)N1CCSC1c1ccco1 (stereo not drawn)
x	2.0	CC(NS(C)(=O)=O)C(c1cccs1)N1CCOCC1 (stereo not drawn)
0.4	x	Cc1cc(Oc2ncccc2[N+](=O)[O-])c2ccccc2n1
x	11.0	CCCNC(=O)CN1CCN(c2nc(C)nc3scc(-c4cccs4)c23)CC1
x	-28.0	Cn1/c(=N\NC(=O)C23CC4CC(CC(C4)C2)C3)sc2ccccc21
1.0	-12.0	S=C(Nc1ccc2nsnc2c1)N1CCCC1
-0.1	x	O=C(Nc1cccc([N+](=O)[O-])c1)c1ccc(Br)c(S(=O)(=O)Nc2ccc(Cl)cc2)c1

# 4 compounds from above, sorted by length of the SMILES, ascending.
MgrA-DNA mod	Sa helicase inh	SMILES
x	-23.0	CS(=O)(=O)N1CCSC1c1ccco1 (stereo not drawn)
0.4	x	Cc1cc(Oc2ncccc2[N+](=O)[O-])c2ccccc2n1
x	-28.0	Cn1/c(=N\NC(=O)C23CC4CC(CC(C4)C2)C3)sc2ccccc21
2.6	x	Cn1cnc([N+](=O)[O-])c1Sc1nnc(-c2ccc(C(C)(C)C)cc2)n1-c1ccc2c(c1)OCO2

# Other records.
MgrA-DNA mod	Sa helicase inh	SMILES
-1.5	x	O=S(=O)(c1ccccc1)c1ccsc1
x	2.0	COc1ccc(/C=N/NC(=O)c2ccncc2)cc1CN1CCN(c2ccc(F)cc2)CC1
5.2	x	CC(C)(O/N=C(/C(=O)N[C@@H]1C(=O)N2C(C(=O)[O-])=C(C[n+]3ccccc3)CS[C@H]12)c1csc(N)n1)C(=O)O
-1.5	4.0	CCC(=O)NC(Nc1cccnc1Cl)(C(F)(F)F)C(F)(F)F
1.0	x	Cc1cc2c(nn1)CCc1nonc1-2
-2.5	x	Cc1cccc(NC(=O)c2cccc3c2OC(C)(C)C3)c1
x	-3.0	O=C(c1cnn(-c2ccccc2)n1)N(CC1CCCO1)C1CCS(=O)(=O)C1 (stereo not drawn)
-1.2	3.0	CN(C(=O)c1cc2c(s1)-c1ccc(Cl)cc1SC2)c1cccc(Cl)c1
x	-7.0	O=C(CSc1nnc(-c2ccco2)o1)NC(=O)C1COc2ccccc2O1 (stereo not drawn)
x	-37.0	O=C(Nc1ccccc1O)c1cccc(S(=O)(=O)N2CCCC2)c1
x	2.0	O=C(NCC1COc2ccccc2O1)c1ccccc1Br (stereo not drawn)
x	27.0	O=S(=O)(c1ccccc1)c1ccc(C(F)(F)F)cn1
x	-16.0	Cc1csc(C2C(=O)NC(S)=C(C#N)C23CCCCC3)n1 (stereo not drawn)
1.7	x	COC(=O)C(Cc1c[nH]c2ccccc12)NS(=O)(=O)c1ccccc1C(F)(F)F (stereo not drawn)
-1.4	1.0	CC(C)(C)NC(=O)CSc1nc(O)cc(=O)[nH]1
0.9	-15.0	COc1ccc(S(=O)(=O)NCCN2CCOCC2)cc1OC
x	-17.0	COc1cccc(OCCSc2nc3ccccc3c(=O)[nH]2)c1
x	7.0	Cc1ccc(C(=O)OC(C)CN2CCCC2)cc1 (stereo not drawn)
x	-30.0	CC(C)CNC(=O)c1cc(CC(C)C)on1
-3.7	x	Fc1cccc(Cl)c1CN1CCN(c2ncnc3scc(-c4ccccc4)c23)CC1
x	6.0	O=C(CSc1ncnc2sc3c(c12)CCC3)c1ccc(F)cc1
2.8	15.0	NC(=O)C1CCN(C(=O)c2n[nH]c(=O)c3ccccc23)CC1
0.6	x	CCOC(=O)/C=C1\CSCC(C(=O)OCC)N1 (stereo not drawn)
x	-29.0	CC(=O)N1c2ccc(S(=O)(=O)N3CCC(C(=O)N4CCn5c4nc4ccccc45)CC3)cc2CC1C (stereo not drawn)
1.8	3.0	Cc1cc(OCC(=O)N(C)c2ccccc2)cc(C)c1Cl
-0.3	-2.0	CCCn1ncc(OC)c(Cl)c1=O
0.9	-15.0	COc1ccc(NC(=O)C(Cc2c[nH]c3ccccc23)NC(C)=O)cc1OC (stereo not drawn)
x	13.0	Cc1cc(NC(=O)c2ccc3c(c2)S(=O)(=O)c2ccccc2C3=O)n(-c2ccccn2)n1
-2.6	5.0	Cc1cccc(C)c1NCc1nnc(SCC#N)n1-c1ccccc1
x	3.0	Cc1noc(N)c1C(=O)OCc1c(F)cccc1Cl
x	1.0	CCNC(=O)C1CCCN(C2=NS(=O)(=O)c3ccccc32)C1 (stereo not drawn)
-3.8	3.0	O=C(Nc1nncs1)C1CCCCC1
x	-9.0	O=C(CSc1ncccn1)NC(=O)NC1CCCCC1
0.6&1.0	4.0&-13.0	COc1ccc2cc(-c3nc4ccccc4[nH]3)c(=N)oc2c1
x	4.0	Cc1ccc2occ(CC(=O)Nc3ccc(C)c(Cl)c3)c2c1
x	13.0	COc1cc(C)c2c(=O)c(Oc3ccccc3)c(C)oc2c1
-0.1	5.0	Cn1cnnc1SCC(=O)NC1CCCC1
-1.8	-7.0	CCC(=O)Nc1nc2ccc(C)cc2s1
-0.3	2.0	COc1ccc(C(=O)Nc2ccc(-c3cn4ccccc4n3)cc2)cc1
x	4.0	CCNc1nc(NCC)n2c(SCC(=O)N3CCc4ccccc4C3)nnc2n1
x	-84.0	C=CCn1c(=C(C#N)C#N)s/c(=C\c2ccc(Br)cc2)c1=O
x	15.0	Cc1ccc(-c2nnc(N3CCOCC3)c3ccccc23)cc1S(=O)(=O)NCc1ccccn1
0.2	13.0	Cc1ccc(CN(C(=O)COc2c(F)c(F)c(F)c(F)c2F)C2CCS(=O)(=O)C2)o1 (stereo not drawn)
-1.1	x	COC(=O)c1csc2c(C(F)(F)F)cc(N3CCN(S(=O)(=O)c4ccc(Cl)cc4)CC3)nc12
x	-7.0	CNc1ccc2ccccc2c1SC
0.3	x	Cn1c(Sc2c([N+](=O)[O-])cc(C(F)(F)F)cc2[N+](=O)[O-])nnc1C(F)(F)F
x	-2.0	Cc1ccc(C)c(SCC(=O)Nc2ccc(-n3cnnn3)cc2)c1
-0.7	-10.0	NC1=NC(c2cccc(Cl)c2)N(CCc2ccc(F)cc2)C(N)=N1 (stereo not drawn)
x	-5.0	CCC1(C)NC(=O)N(NC(=O)c2ccc(CSc3ncn[nH]3)cc2)C1=O (stereo not drawn)
x	-1.0	O=C1CCCN1C(=O)CSc1nc2ccccc2n1CCc1ccccc1
1.3	x	CCCN1C(=O)c2ccccc2NC1c1ccc(OC)c(COc2ccc([N+](=O)[O-])c(C)c2)c1 (stereo not drawn)
0.4	-10.0	Cc1ccc(-c2nn(-c3ccccc3)cc2/C=C/C(=O)O)o1
x	8.0	CCCOC(=O)c1ccc(NC(=O)CN(C)C)cc1
x	-7.0	CCCN=C1NN=C(c2ccc(OCC)cc2)CS1
-0.2	10.0	CC(C)(C)OC(=O)NN1C(=O)c2ccccc2C1=O
1.7	0.0	CCCNC(=O)c1cc(Cl)c(NC(C)=O)cc1OC

# Further structures.
MgrA-DNA mod	Sa helicase inh	SMILES
x	13.0	O=C1CCC(C(=O)NCCCn2ccnc2)N1 (stereo not drawn)
x	16.0	OC(c1nc2ccccc2[nH]1)C(O)c1nc2ccccc2[nH]1 (stereo not drawn)
-3.4	-5.0	CC1(c2ccccc2)CC(C)(C)N2C(=O)Cc3cccc1c32 (stereo not drawn)
-2.7	x	Cc1ccc(F)cc1NC(=O)CSc1ccccn1
x	3.0	CC12CCC(C(=O)O)(C/C1=N\O)C2(C)C (stereo not drawn)
x	-8.0	Cc1ccccc1NC(=O)Cc1nc(-c2cc(C)n(Cc3ccco3)c2C)cs1
x	-119.0	N#CC(C(=O)NCc1ccccc1)c1nc2ccccc2nc1N1CCCC1 (stereo not drawn)
1.9	-6.0	C=CCOc1cccc(C2C(C(=O)c3ccc(C)o3)=C(O)C(=O)N2c2nnc(C)s2)c1 (stereo not drawn)

# Whole records as entered above:
# O=C1CCC(C(=O)NCCCn2ccnc2)N1 (stereo not drawn) in the list: MgrA-DNA mod: x; Sa helicase inh: 13.0
# N#CC(C(=O)NCc1ccccc1)c1nc2ccccc2nc1N1CCCC1 (stereo not drawn) in the list: MgrA-DNA mod: x; Sa helicase inh: -119.0

# Other entries:
MgrA-DNA mod	Sa helicase inh	SMILES
-3.0	x	Cc1nnsc1C(=O)N1CCC(O)(c2ccc(Cl)cc2)CC1
0.8	-1.0	O=C(Nc1ccc2c(c1)oc1ccccc12)C(F)(F)F
x	3.0	COc1ccc(Cn2c(=O)[nH]c3cc(C(=O)NCCCN4CCCCC4)ccc3c2=O)cc1
-0.4	x	COc1ccc(COc2ccc(CC#N)cc2)cc1
x	-5.0	CCc1nnc(NC(=O)CSc2nccn2-c2cc(C)cc(C)c2)s1
x	-16.0	Cc1ccc(S(=O)(=O)Nc2ccc3oc(=O)sc3c2)c(C)c1
-7.8	17.0	COC(=O)c1c(NC(C)=O)sc2c1CCC2
-26.6	4.0	O=C(O)C1CCCCC1C(=O)Nc1cccc(C(=O)N2CCCCC2)c1 (stereo not drawn)
-2.8	-6.0	CC1CC(C)CN(C(=O)CSc2ncnc3ccccc23)C1 (stereo not drawn)
-0.5	9.0	Cc1ccc(C(=O)Nc2c[nH]c(=O)[nH]c2=O)cc1
x	17.0	C/C(=N\OC(=O)c1ccccc1)c1csc(-c2snnc2C)n1
-1.5	4.0	COC1(C)COC(C)(OC)CO1 (stereo not drawn)
x	-19.0	Cc1ccccc1Nc1c(-c2ccc(O)cc2)nc2cnccn12
4.0	15.0	COc1ccc(CC(=O)NCc2nnc(SCCOc3ccccc3)n2C)cc1
x	-19.0	CCOC(=O)COc1nc(-c2ccccc2)nc2ccccc12
x	9.0	CC(=O)N(CCC(c1ccccc1)C1CCOC(C)(C)C1)Cc1ccccc1 (stereo not drawn)

# Next section; the last 2 above are carried over.
MgrA-DNA mod	Sa helicase inh	SMILES
x	-19.0	CCOC(=O)COc1nc(-c2ccccc2)nc2ccccc12
x	9.0	CC(=O)N(CCC(c1ccccc1)C1CCOC(C)(C)C1)Cc1ccccc1 (stereo not drawn)
2.1	-1.0	COc1ccc(NC2=Nc3ccccc3CCC2)cc1
-1.8	5.0	O=C(O)CCCNc1ncnc2ccc(Br)cc12
x	-31.0	CC(C)CC(C(=O)O)N1C(=O)/C(=C\c2cccn2C)SC1=S (stereo not drawn)
-8.8	x	OCCCc1[nH]nc(-c2ccc(Cl)cc2)c1Br
x	8.0	CN(C(=O)COC(=O)c1cc(=O)[nH]c(=O)[nH]1)C1CCCCC1
0.3	x	COc1cc(OC)cc(-c2nc(N)c3c(C)c(-c4ccc(OC)c(OC)c4)sc3n2)c1
0.0	18.0	CC1(C)Cc2ccccc2C(N/N=C/c2ccncc2)=N1
0.6	18.0	CC(C(=O)NCc1ccccc1)C1Sc2ccccc2N(Cc2cccc(Cl)c2)C1=O (stereo not drawn)
x	6.0	Cc1cc(C(=O)OCc2nc3ccccc3c(=O)n2CC#N)c(C)n1-c1ccc(F)cc1
-0.4	1.0	CCNS(=O)(=O)c1ccc(SC)cc1
-0.4	9.0	O=c1oc(-c2ccccc2N=Cc2sc3ccccc3c2O)nc2ccccc12
-1.9	x	C/C(Nc1ccc(F)cc1)=C1/CCOC1=O
x	22.0	O=C1c2ccccc2-c2c1c1ccccc1c(=O)n2Cc1ccc2c(c1)OCO2
x	19.0	CCN(CC)S(=O)(=O)N1CCC(C(=O)NCCc2ccccc2)CC1
x	-5.0	CCC1CCc2sc(C(=O)O)cc2C1 (stereo not drawn)
-0.4	6.0	Cc1cc(C)c2c(N)c(C(=O)C(C)(C)C)sc2n1
1.7	3.0	OCC1CCCC1O (stereo not drawn)
x	-15.0	COc1ccc(CN(Cc2ccc(OC)cc2)S(=O)(=O)c2c(C)noc2C)cc1
-3.2	1.0	CCC(Sc1ccccn1)C(=O)Nc1cccc2ccccc12 (stereo not drawn)
1.5	16.0	COC(CNC(=O)c1ccc2c(c1)N(Cc1cc(C)ccc1C)C(=O)c1ccccc1S2=O)OC (stereo not drawn)
x	5.0	C=CCn1c(SCN2C(=O)c3ccccc3C2=O)nnc1C1CCCCC1

# High-throughput results from PubChem BioAssay.
